Env fusion inh: blocks HIV Env-driven cell-cell fusion. 360,000 compounds, 1.1% hits. inhibition, % at 12.3 µM. AID 651610. HeLa-JRFL Env/CEM21 cell fusion, luciferase;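 active = mean replicate inhibition score of at least 50 and every replicate individually at or above 50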;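 note: 0% = plate neutral controls and 100% = maraviroc near 300 nM; one replicate is shown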
MT1-MMP act inh: MT1-MMP (human) activation inhibition. P50281. HT1080 RFP-PRO-GFP cells, GFP/RFP ratio fluorescence, overnight; percent of plate control window, DMSO zero. GFP/RFP ratio change, % at 20 µM. 360,000 compounds, 0.061% hits;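 active = GFP/RFP ratio change of at least 30% with cell ATP level not reduced by more than half and red fluorescence within 50% of control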; note: strong numbers were not always called active
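Test system: HT1080 cells expressing an RFP-PRO-GFP fluorescent reporter construct / Compound dosing: single-point 20 µM compound, 1% DMSO / Schedule: cells overnight before dosing, compound overnight, 37 °C, 5% CO2 / Evaluation: GFP/RFP fluorescence ratio / Control set: DMSO and RFP-L50D-GFP cell wells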
MT1-MMP act inh RFP: recorded beside MT1-MMP act inh, whose call it bears; RFP signal change, %; measured here: RFP expression control read;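 0 = vehicle wells; hits needed this value within 50% of zero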
* hit, by the source's call. This is a subset. The share of hits here may be higher or lower than overall.

SMILES | Env fusion inh | MT1-MMP act inh | MT1-MMP act inh RFP
COC(=O)c1ccc(NCc2c(O)ccc(O)c2Br)cc1Cl | -119 | -20 | -24
CCCCCCn1cc(CN(C)C2CN(Cc3cn(CCCCCC)nn3)S(=O)(=O)C2)nn1 (stereo unspecified) | 8 | 1 | -4
COc1ccc(C=C(C(=O)O)c2ccc(OC)cc2)cc1 | -8 | 6 | 2
CCOC(=O)Cc1c(-c2cccc(Cl)c2)nc2c3ccccc3ccn12 | 3 | -5 | -11
O=C(C1=NOC2(C1)C(=O)N(Cc1ccccc1)c1ccccc12)N1CCOCC1 (stereo unspecified) | 0 | 1 | -2
Cc1c(CCO)c(=O)n2n1CCCC2 | -8 | 1 | 4
C#CCNC(=O)c1cc2c(Br)ccc(Br)c2nc1N | -27 | 0 | 1
COC(=O)C1=CN(c2ccc3c(c2)OCO3)C(N)=C(C#N)C1c1ccccc1 (stereo unspecified) | -24 | -2 | -5
CC(C)C[C@@H](COCc1cccc(Cl)c1)N1CCN(C(=O)c2cccc(C(F)(F)F)c2)CCC1=O | 58* | -6 | -11
CN(C)C1CN(Cc2cn(Cc3ccccc3)nn2)S(=O)(=O)C1 (stereo unspecified) | -5 | -1 | 6
COC(=O)[C@@]12C[C@@H](CC(=O)NCCC(C)C)C(=O)N(Cc3ccco3)C1=CCC(C)(C)C2 | 27 | -7 | -5
COc1ccc(Nc2c(-c3cccc(OC)c3)nc3nc(C)cc(C)n23)cc1 | -12 | 6 | 1
CC1(c2nnnn2-c2ccc3c(c2)OCCO3)CCC(=O)N1CCc1ccc(O)cc1 (stereo unspecified) | -4 | -1 | 6
CCOC(=O)C(=O)N(C)c1c(CC)nc2c(OCc3cc(Cl)cc(Cl)c3)cccn12 | -10 | -2 | -5
COc1ccc(N2C(=O)c3ccccc3NC(=O)C2C(=O)NCC(C)C)cc1 (stereo unspecified) | -32 | 3 | 6
O=C1NC[C@H](Cc2ccccc2)N(C[C@@H]2CCCN2C[C@H](Cc2ccccc2)N2C[C@H](Cc3ccc(O)cc3)N(CCc3ccccc3)C(=O)C2=O)C1=O | -14 | 2 | -9
COc1ccc(S(=O)(=O)N2CCC[C@H]2C(=O)N2CCC[C@H]2C(=O)N(C)Cc2ccccc2)cc1C | -16 | 1 | -2
COC(=O)[C@]12CCCCC=C1N(CCc1ccc(OC)c(OC)c1)C(=O)[C@H](CC(=O)N1CCCCC1)C2 | -1 | 1 | 0
CC1(C)CC(=O)C(C(c2ccc3c(c2)OCO3)C2C(=O)CC(C)(C)CC2=O)C(=O)C1 | 13 | 2 | 5
C[C@H]1COc2cc(N3CC[C@H](O)C3)ccc2S(=O)(=O)N1 | -35 | 4 | 7
O=[N+]([O-])c1cccc2nc3ccccc3c(NCCCn3ccnc3[N+](=O)[O-])c12 | 6 | -1 | -8
Cc1[nH]c(=S)[nH]c(=O)c1Cc1c(O)ccc2ccccc12 | 20 | -5 | -3
CN(Cc1ccccc1)C(=O)[C@@H]1CCCN1C(=O)[C@@H]1CCCN1C(=O)c1ccc(Cl)cc1 | -4 | 2 | 1
CC1CC(C)CN(C(=O)C(C)N2CCN(S(=O)(=O)c3ccccc3F)CC2)C1 (stereo unspecified) | 5 | 0 | 4
COCCN1CCC(CO)C1 (stereo unspecified) | -106 | -2 | 0
Cn1c(=S)sc2ccc3ccccc3c21 | 45 | 3 | 2
Cc1cc(C(=O)COC(=O)c2ccc(NC(=O)CC#N)cc2)c(C)n1-c1ccc(OC(F)F)cc1 | 7 | -2 | -5
Cc1cc(NC(=O)OC(C)(C)C)c(-n2nnnc2C(C(=O)c2ccccc2)N2CCOCC2)cc1C (stereo unspecified) | -16 | 3 | 3
COc1cccc(C(=O)C(=O)N2CCN(C(=O)OCc3ccccc3)CC2)c1 | 3 | 1 | -2
Cn1c(N=Cc2ccc([N+](=O)[O-])cc2)c(N)c(=O)n(C)c1=O | 7 | -5 | -2
OCC(O)C1OC(Oc2ccccc2)C(O)C(O)C1O (stereo unspecified) | 17 | -2 | 4
CCCCc1c(-c2ccccc2OC)ncn1CCc1ccccc1 | 13 | 6 | -7
Cc1cc(C)c(OCC(=O)Nc2nnc(C3CC3)s2)c(C)c1 | 4 | -5 | 1
C[C@H]1COc2cc(N3CCSCC3)ccc2S(=O)(=O)N1 | -5 | 5 | 3
CC(C)C[C@H]1CN(CCCC[C@@H]2CNC(=O)C(=O)N2CCc2ccccc2)C(=O)C(=O)N1Cc1ccccc1 | -15 | 1 | 2
CC(C)(C)C(=O)c1c(N)[nH]c(C(=O)c2ccccc2)c1-c1cc2ccccc2nc1Cl | 0 | -1 | 6
Cc1nc(SCC(=O)N(CC(C)C)C2CCS(=O)(=O)C2)c(C#N)c(C)c1C (stereo unspecified) | -229 | -6 | -5
Cc1ccccc1S(=O)(=O)N1C[C@@H]2C(C(=O)C[C@@H]3C(=O)N(C)C(=O)[C@@H]32)[C@@H]1c1ccc(Cl)cc1 (stereo partly specified) | 61* | 1 | 2
Cc1cc2nc(-c3cccc(Br)c3)c(Cc3ccsc3)n2c(C)c1Br | -11 | 4 | 6
O=S1(=O)CC(N2CCN(CCO)CC2)CN1Cc1cn(Cc2cccc(Cl)c2)nn1 (stereo unspecified) | -15 | -1 | 0
CCNc1nc(-c2sc(NC(=O)C(C)(C)C)nc2C)c(-n2cc(-c3ccccc3)nn2)s1 | 4 | -14 | -21
COCCCNC(=O)C[C@@H]1C[C@@]2(C(=O)OC)CCCCC=C2N(CCC2=CCCCC2)C1=O | 23 | 3 | 2
CCOC(=O)C1=C(COC(=O)c2nc(Cl)ccc2Cl)NC(=O)NC1C (stereo unspecified) | 18 | 10 | 6
CCOC(=O)c1cc2c(=Cc3ccc(N(C)C)cc3)c3ccccc3n2[n+]1C | 48 | 83 | 51
O=C1C(=Cc2cccc(Cl)c2)Cc2ccccc21 | -14 | -1 | -2
COc1cccc2c1C(=O)c1c(O)c3c(c(O)c1C2=O)CC(O)(C(C)=NNC(=O)c1ccc(Cl)c(Cl)c1)CC3OC1CC(N)C(O)C(C)O1 (stereo unspecified) | 86* | -12 | 47
COC(=O)[C@]12CCCCC=C1N(Cc1ccco1)C(=O)[C@H](CC(=O)NCc1ccc(OC)c(OC)c1)C2 | 4 | 5 | 4
CN(C)CCNc1ccc2nnn3c4ccc(O)cc4c(=O)c1c23 | 2 | 24 | 19
COCCNc1nc(Oc2cncc(Cl)c2)c2sccc2n1 | 10 | -11 | -7
COc1cc2ccc(CC(=O)O)cc2cc1OC | -32 | 5 | 6
O=C(C(=O)N1CCN(C(=O)OCc2ccccc2)CC1)c1cccnc1 | 6 | 1 | 0
O=C(c1ccc(CSc2ccc(Cl)cc2)o1)N1CCOCC1 | 21 | 3 | 0
COC(=O)[C@]12CCCCC=C1N(Cc1cccc3ccccc13)C(=O)[C@H](CC(=O)N1CCCC1)C2 | 20 | -15 | -28
Oc1[nH]c2ccccc2c1N=Nc1ccccn1 | -37 | 2 | -1
CC(C)(C)C(c1nc2ccccc2[nH]1)n1c(-c2ccco2)nc2ccccc21 (stereo unspecified) | 8 | 7 | 2
CCCc1c(-c2ccc(Cl)cc2)ncn1Cc1cccc(-c2ccccc2)c1 | 45 | 3 | -29
CC1(c2nc3ccccc3[nH]2)CCCC2=Nc3ccccc3CN21 (stereo unspecified) | -6 | 3 | 3
COc1ccc([C@H]2CC(=O)C[C@@H](CCn3cc(CC4CCCC4)nn3)O2)cc1 | -14 | 1 | 2
Brc1cc2c(cc1C1OCCO1)OCO2 | -28 | -1 | 1
O=C1C(=Cc2cccc(F)c2)Cc2ccccc21 | -15 | 3 | 1
Later entries.
SMILES | Env fusion inh | MT1-MMP act inh | MT1-MMP act inh RFP
Cc1cccc(C)c1NC(=O)C(CCc1ccccc1)N1CCN(C)CC1 (stereo unspecified) | -7 | 2 | 5
FC(F)(F)c1ccccc1Cc1c(-c2cccc(Cl)c2)nc2c3ccccc3ccn12 | -12 | 1 | 1
COC(=O)[C@@]1(C(C)C)N=C(c2cc(OC)c(OC)c(OC)c2)[C@]2(O1)C(=O)Nc1ccc(F)cc12 | 24 | 1 | 3
CC(=O)C1CCC2C3CC=C4CC(SC(=N)N)CCC4(C)C3CCC12C (stereo unspecified) | -11 | -3 | -8
CC1CC(C)CN(C(=O)CN2C(=O)NC3(CCCCCC3)C2=O)C1 (stereo unspecified) | -75 | 3 | 1
Cc1cc(-c2nc3cc(F)ccc3s2)ccc1N | -232 | 3 | -4
COC(=O)[C@@]12C[C@@H](CC(=O)N3CCOCC3)C(=O)N(Cc3cccc4ccccc34)C1=CCC(C)(C)C2 | 13 | -11 | -17
c1ccc(C(Nc2cccnc2)c2ccccc2)cc1 | 23 | -1 | 0
NC(=O)NN=C1CCn2cccc21 | -12 | -5 | 2
CCOC(=O)C1=C(C)OC(=Cc2ccccc2)C1=O | -4 | -13 | 7
CCCc1c(-c2cccc(Br)c2)ncn1Cc1cccc(-c2ccccc2)c1 | 30 | -5 | -21
O=c1nc(NO)ccn1C1CCCO1 (stereo unspecified) | 20 | 2 | 5

Reformatted with tabs: part of the list above.
structure	Env fusion inh	MT1-MMP act inh	MT1-MMP act inh RFP
CCCc1c(-c2ccc(Cl)cc2)ncn1Cc1cccc(-c2ccccc2)c1	45	3	-29
CC1(c2nc3ccccc3[nH]2)CCCC2=Nc3ccccc3CN21 (stereo unspecified)	-6	3	3
COc1ccc([C@H]2CC(=O)C[C@@H](CCn3cc(CC4CCCC4)nn3)O2)cc1	-14	1	2
Brc1cc2c(cc1C1OCCO1)OCO2	-28	-1	1
O=C1C(=Cc2cccc(F)c2)Cc2ccccc21	-15	3	1
Cc1cccc(C)c1NC(=O)C(CCc1ccccc1)N1CCN(C)CC1 (stereo unspecified)	-7	2	5
FC(F)(F)c1ccccc1Cc1c(-c2cccc(Cl)c2)nc2c3ccccc3ccn12	-12	1	1
COC(=O)[C@@]1(C(C)C)N=C(c2cc(OC)c(OC)c(OC)c2)[C@]2(O1)C(=O)Nc1ccc(F)cc12	24	1	3
CC(=O)C1CCC2C3CC=C4CC(SC(=N)N)CCC4(C)C3CCC12C (stereo unspecified)	-11	-3	-8
CC1CC(C)CN(C(=O)CN2C(=O)NC3(CCCCCC3)C2=O)C1 (stereo unspecified)	-75	3	1
Cc1cc(-c2nc3cc(F)ccc3s2)ccc1N	-232	3	-4
COC(=O)[C@@]12C[C@@H](CC(=O)N3CCOCC3)C(=O)N(Cc3cccc4ccccc34)C1=CCC(C)(C)C2	13	-11	-17
c1ccc(C(Nc2cccnc2)c2ccccc2)cc1	23	-1	0
NC(=O)NN=C1CCn2cccc21	-12	-5	2
CCOC(=O)C1=C(C)OC(=Cc2ccccc2)C1=O	-4	-13	7
CCCc1c(-c2cccc(Br)c2)ncn1Cc1cccc(-c2ccccc2)c1	30	-5	-21
O=c1nc(NO)ccn1C1CCCO1 (stereo unspecified)	20	2	5

Further structures
SMILES | Env fusion inh | MT1-MMP act inh | MT1-MMP act inh RFP
CSCCC(c1nc2ccccc2[nH]1)n1c(/C=C/c2ccc(F)c(F)c2)nc2ccccc21 (stereo unspecified) | -76 | -5 | -10
COc1cc(CN2C[C@@H](CO)O[C@@H](n3cnc4c(Nc5ccccc5)ncnc43)C2)cc(OC)c1OC | 12 | 9 | 2
Cc1cc2c(cc1C)-n1nnnc1C(N1CCCC1)C(=O)N2 (stereo unspecified) | 26 | 6 | 6
Cc1ccc(C(O)c2ncc(-c3ccc4ccccc4c3)[nH]2)cc1F (stereo unspecified) | 15 | 0 | -4
O=C(NCCN1CCC(n2c(=O)[nH]c3ccccc32)CC1)c1ccc(F)c(C(F)(F)F)c1 | 13 | 6 | -3

Source: PubChem BioAssay (several laboratories)
